Screening results deposited in PubChem by ICCB-Longwood Screening Facility, Harvard Medical School.
Anaer choline gr – blocks anaerobic gram-negative growth on choline; calls only; actives 0.2% (n = 55,000); Gram-negative bacterium anaerobic choline minimal medium, absorbance growth; active compounds read low; many inactives read as strong as hits in the columns shown;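 active = growth z-score on choline under -2 at 7 or 20 h with little or no fall on glycerol, limits in tiers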;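 note: stock transfer was 300 nL into about 50 µL; the organism is E. coli; final concentration not given here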
Anaer choline gr early – also measured in Anaer choline gr; calls as there; z-score; measured here: choline growth z-score, timepoint 1;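 score of optical density at 7 h as mean of two plates; lower means less growth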
An asterisk follows results filed as active; i = inactive; & = joins results of further samples. An excerpt. The share of hits here may be higher or lower than overall.

SMILES | Anaer choline gr | Anaer choline gr early
O=C(/C=C/c1ccc(O)c(O)c1)O[C@H](Cc1ccc(O)c(O)c1)C(=O)O | i | 0.11
O=C(Nc1ccc(Br)cc1)C1Nc2cc(F)ccc2S(=O)(=O)N1 (stereo unspecified) | i | 0.16
CC1CN(S(=O)(=O)c2cccc3cnccc23)CCN1 (stereo unspecified) | i | -0.18
O=C(NCc1ccc(F)cc1)C1CCCN(c2ncnc3c2oc2ccccc23)C1 (stereo unspecified) | i | -0.3
Cc1cc(=O)n2[nH]c(CN(c3ccc(F)cc3)S(=O)(=O)c3ccccc3)nc2n1 | i | 0
Cc1nn(C)cc1CN1CCCC1c1c(C)noc1C (stereo unspecified) | i | 0.67
O=C(CN1C(=O)C2CCCCN2c2ccc(S(=O)(=O)N3CCCCC3)cc21)N1CCCCC1 (stereo unspecified) | i | -0.13
Cc1nn(-c2ccc3nncn3n2)c(C)c1CCC(=O)Nc1ccc(F)cc1Cl | i | 0.68
CC(C)NC(=O)CCCCn1c(=O)c2ccccc2n(CC(=O)Nc2ccccc2)c1=O | i | 0.13
COC(=O)c1ccc2c(=O)n(-c3cc(C)cc(C)c3)c(N3CCSC3)nc2c1 | i | -0.52
CC(=O)Nc1cccc(N2CC(C(=O)Nc3ccc4c(c3)OCCO4)CC2=O)c1 (stereo unspecified) | i | -0.64
Cc1ccc(OCCCn2c(C(C)O)nc3ccccc32)cc1 (stereo unspecified) | i | 0.91
O=C(CN1C(=O)CSc2sc(S(=O)(=O)N3CCCC3)cc21)NCc1ccc2c(c1)OCO2 | i | 0.93
CCc1nc(-c2cc(S(=O)(=O)Nc3cc(F)cc(F)c3)c(C)s2)cs1 | i | -1.63
O=c1c2oc3ccccc3c2ncn1Cc1ccc(F)cc1 | i | 0.46

Reformatted: entries from further up.
Order of results: Anaer choline gr, Anaer choline gr early
> CCc1nc(-c2cc(S(=O)(=O)Nc3cc(F)cc(F)c3)c(C)s2)cs1
 : i, -1.63
> O=c1c2oc3ccccc3c2ncn1Cc1ccc(F)cc1
 : i, 0.46

Compound profiles, from the list above. Values in the order: Anaer choline gr	Anaer choline gr early
Cc1cc(=O)n2[nH]c(CN(c3ccc(F)cc3)S(=O)(=O)c3ccccc3)nc2n1 in the list: i	0
O=C(Nc1ccc(Br)cc1)C1Nc2cc(F)ccc2S(=O)(=O)N1 (stereo unspecified) in the list: i	0.16
CC(=O)Nc1cccc(N2CC(C(=O)Nc3ccc4c(c3)OCCO4)CC2=O)c1 (stereo unspecified) in the list: i	-0.64
CCc1nc(-c2cc(S(=O)(=O)Nc3cc(F)cc(F)c3)c(C)s2)cs1 in the list: i	-1.63
COC(=O)c1ccc2c(=O)n(-c3cc(C)cc(C)c3)c(N3CCSC3)nc2c1 in the list: i	-0.52

New compounds follow:
SMILES | Anaer choline gr | Anaer choline gr early
CC(C)(C)C(=O)Oc1ccc(S(=O)(=O)Nc2ccccc2C(=O)NCC(=O)O)cc1 | i | 0.07
CC(C)CNC(=O)c1ccc2c(=O)n(C(C)C)c3nn(CC(=O)NC4CCCC4)c(=O)n3c2c1 | i | 1.15
CCCCCn1c(=O)c2c(nc3n2CCS3)n(C)c1=O | i | 0.24
COC(=O)c1ccc(NC(=O)CSc2nnc(C(C)N3C(=O)COc4ccccc43)n2C)cc1 (stereo unspecified) | i | 0.24
Cc1ccc(CCN2CC(C(=O)N3CCC(Cc4ccccc4)CC3)CC2=O)cc1 (stereo unspecified) | i | -0.33
O=S(=O)(c1ccc(Cl)cc1)N1CCC2(CC1)Nc1cc(F)ccc1-n1cccc12 | i | 0
CCN(CC)Cc1cc(Nc2ccnc3cc(Cl)ccc23)ccc1O | i | 0.6
Cc1ccc(CNC(=O)NC(c2ccccc2)c2nnc(-c3ccc(Cl)cc3)o2)cc1 (stereo unspecified) | i | 1.42
CCn1nc(C)c2c1c(=O)n(Cc1ccc(F)cc1)c(=O)n2CC(=O)NC1CCCCC1 | i | -0.8
COc1ccc(C2CC(=O)C3=C(C2)Nc2ncnn2C3c2cccc(OC)c2)cc1 (stereo unspecified) | i | 0.69
O=C1COc2cc(S(=O)(=O)N3CCC(N4CCCCC4)CC3)c(Cl)cc2N1 | i | 0.22
COC(=O)c1cc(S(=O)(=O)NCCC(=O)Nc2ccc(F)cc2F)cn1C | i | -0.66
O=C(NC1CCCCC1)c1cnc2sc3c(n2c1=O)CCCCC3 | i | 0.88
O=C(CCc1ccccc1)NCc1nc2cccnc2n1Cc1ccccc1 | i | 1.5
Cc1nn(-c2ccc3nnc(C)n3n2)c2c1C(c1ccccc1OCCc1ccccc1)CC(=O)N2 (stereo unspecified) | i | 0.49
CCOC(=O)c1cc(S(=O)(=O)Nc2ccc(S(N)(=O)=O)cc2)c(C)n1C | i | -1.52
CCOC(=O)Cn1c(=O)n(-c2ccccc2)c2nc(CC(C)C)nc(C(N)=O)c21 | i | -0.03
CCN1CCN(c2nc3ncn(CC(=O)Nc4ccc(C(C)C)cc4)c(=O)c3s2)CC1 | i | -1.15
O=C(Nc1ccc(F)cc1)c1ccc(Nc2ncc(-c3cccc(F)c3)cn2)cc1 | i | 0.04
COc1ncnc2sc3c(c12)CCCC3 | i | 0.2
O=C(Nc1cccc(Br)c1)Nc1cc(NC(=O)c2ccccc2)ccc1N1CCCC1 | i | -0.5
Cc1cc(C2CCCN2Cc2cc(Br)ccc2O)no1 (stereo unspecified) | i | -0.08
CCOC(=O)C1CCN(C(=O)c2cccc(-c3noc(C)n3)c2)CC1 | i | -0.76
CC(C)C(=O)Nc1nc2cc(NC(=O)c3cnccn3)ccc2s1 | i | 0.81
CCc1ccc(-c2nc3ccccn3c2CNCc2ccc(OC)cc2)cc1 | i | -0.56
COCCn1c(-c2cccc(OC)c2)cnc1NC(=O)NCC1CCCO1 (stereo unspecified) | i | 0.19
COc1ccc(S(=O)(=O)N2CCN(c3nc4ccccc4n4cccc34)CC2)cc1 | i | -0.51
Cc1ccc(NS(=O)(=O)c2cc(-c3nc(C)c(C)s3)sc2C)cc1Cl | i | -1.56
Cc1cc(NC2CCCCC2)nc(-n2nc(C)cc2C)n1 | i | 0.67
Cc1cc(=O)nc2c3ccccc3n(CC(=O)NCc3ccc(F)cc3)n12 | i | -0.72
O=c1[nH]nc(SCc2ccccc2Cl)n2nc(-c3ccc(F)cc3)cc12 | i | -1.32
O=C(Nc1ccccc1F)c1ccc(-n2nc(OCc3cccc(F)c3)ccc2=O)cc1 | i | 1.43
CCC1Cn2c(C(=O)NCCC(C)C)cc3cccc(c32)O1 (stereo unspecified) | i | 0.59
CC1(C)CN(C(=O)C2CC2)c2ccc(S(=O)(=O)NCCc3ccc(S(N)(=O)=O)cc3)cc21 | i | 0.05
CCCC(=O)Nc1ccc2c(c1)nc(CN1CCN(C)CC1)n2CC | i | -0.42
CCc1ccc(NC(=O)CSc2nc3nccnc3c(=O)n2Cc2ccc(Cl)cc2)cc1 | i | -0.35
CC1CC(OC(=O)C(O)c2ccccc2)CC(C)(C)C1 (stereo unspecified) | i | 0.45&0.04
Clc1ccc(-c2csc(Cc3nc(-c4ccc5c(c4)OCO5)no3)n2)cc1 | i | 1.43
Cc1ccc(C(=O)Nc2noc3ccccc23)cc1 | i | 0.52
CC(=O)NCc1nc(-c2ccc3c(c2)nnn3C)no1 | i | -0.88
COc1ccc(C2CC(=O)N(c3ccc(C)c(C)c3)C(=O)C2)cc1OC | i | 0.54
Cc1cc(N2CCCC2)nc(Nc2ccc(NC(=O)Nc3ccc(F)cc3)cc2)n1 | i | 1.76
COc1ccc2cc(NC(=O)Nc3nnc(C)s3)n(C)c2c1 | i | -0.41
CCN1CCN(S(=O)(=O)c2c(C)[nH]c(C)c2-c2nnc(C3CCC3)o2)CC1 | i | -0.69
CCN1CCN(S(=O)(=O)c2cc(-c3nnc(C(C)C)o3)co2)CC1 | i | -0.77
Cc1ccc(C)c(NC(=O)c2nnn(Cc3cccc(F)c3)c2N)c1 | i | -0.54
CN1CCN(C(=O)Nc2cccc(Cl)c2)c2cccnc21 | i | 2.17
CCCCN(CCCC)c1cc(=O)n2c(-c3ccc(Cl)cc3)csc2n1 | i | -0.23
Cc1noc(C)c1Cn1nc2n(Cc3ccc(F)cc3)c(=O)c3nn(C)cc3n2c1=O | i | 0.04
Cc1ccc(CNC(=O)CSc2nc3ncccc3n3cccc23)cc1 | i | 1.26
CCCCn1c(=O)c2sccc2n2c(SCC(=O)NC3CCCCC3)nnc12 | i | 0.2
CN(C)c1oc(-c2ccc(S(=O)(=O)N(C)C)cc2)nc1C#N | i | 0.07
O=C(NCc1noc(C2CCCCC2)n1)c1coc(C2CC2)n1 | i | -0.11
CCC(C)NC(=O)Cn1c(=O)n(-c2ccc(C)cc2)c(=O)c2ccccc21 (stereo unspecified) | i | -0.32
O=C(c1ccc(N2CCOCC2)nn1)N1CCc2ccccc21 | i | -1.33
O=C(NC1CCCCC1)C1CCN(c2cc(-c3cccc(F)c3)ncn2)CC1 | i | -0.51
O=S1(=O)NC(c2ccc(Cl)cc2Cl)Nc2ccccc21 (stereo unspecified) | i | -0.02
CCCC(=O)OCc1cc(=O)n2nc(C)sc2n1 | i | 0.13
COc1cc2c(c(OC)c1OC)-c1c(cc3c(c1OC)OCO3)CC(C)C(C)C2 (stereo unspecified) | i | 0.95
Cc1nc(-c2ccc(F)cc2)sc1CCNS(=O)(=O)c1ccccc1Cl | i | -0.42

Six structures out of the list, arranged by molar mass, ascending.
SMILES | Anaer choline gr | Anaer choline gr early
CN(C)c1oc(-c2ccc(S(=O)(=O)N(C)C)cc2)nc1C#N | i | 0.07
O=S1(=O)NC(c2ccc(Cl)cc2Cl)Nc2ccccc21 (stereo unspecified) | i | -0.02
Cc1ccc(C)c(NC(=O)c2nnn(Cc3cccc(F)c3)c2N)c1 | i | -0.54
Cc1ccc(CNC(=O)CSc2nc3ncccc3n3cccc23)cc1 | i | 1.26
Cc1nc(-c2ccc(F)cc2)sc1CCNS(=O)(=O)c1ccccc1Cl | i | -0.42
CCCCn1c(=O)c2sccc2n2c(SCC(=O)NC3CCCCC3)nnc12 | i | 0.2

(listing goes on)
SMILES | Anaer choline gr | Anaer choline gr early
O=C(Cn1nc2c(SC3CCCCC3)nccn2c1=O)N1CCN(c2ccc(F)cc2)CC1 | i | 0.73
CC1CN(C(=O)c2ccc(F)cc2)c2ccccc2NC1=O (stereo unspecified) | i | -1.51
Cc1ccc(S(=O)(=O)N2CCCN(c3ccc(=O)n(-c4ccc(F)cc4)n3)CC2)cc1 | i | 0.4
CC(C)CSc1nccn2nc(-c3ccccc3)cc12 | i | 0.23
CCOc1ccc(NC(C)=O)cc1 | i | 0.21&0.29
O=C(c1ccc(F)cc1)N1CCN(CCn2c(C(F)(F)F)nc3cccnc32)CC1 | i | -0.42
CCCCc1nnc2sc(-c3cccnc3)nn12 | i | 1.95
CC(Oc1ccc(F)cc1)C(=O)N1CCN(CCc2ccccn2)CC1 (stereo unspecified) | i | -1.5
CCn1c(SCC(=O)N2CCc3cc(Br)ccc32)nnc1-c1cc2ccccc2o1 | i | -1.89
Cc1cc(C)c(S(=O)(=O)Nc2cnc(N(CC(C)C)CC(C)C)c(C(=O)O)c2)c(C)c1 | i | -0.28
Cc1ccc(-c2ccc3nnc(C)n3n2)cc1 | i | -2.82
COc1ccc(C(=O)NCCc2csc(C)n2)cc1 | i | -0.8
Cc1nc(SCc2noc(CCC(=O)Nc3cc(F)cc(F)c3)n2)n[nH]1 | i | -1.1
CCC(C)NC(=O)C1CCN(c2ccnc(-c3ccc(C)cc3)n2)CC1 (stereo unspecified) | i | 0.71
CC(C)c1csc(-c2csc(S(=O)(=O)Nc3ccc(F)cc3Cl)c2)n1 | i | -0.67
O=c1c2cc3c(cc2nc(SCc2nc(-c4ccc(F)cc4)no2)n1Cc1ccccc1)OCO3 | i | -0.3
O=C(CCC(=O)N1CCc2cc(S(=O)(=O)N3CCc4ccccc4C3)ccc21)N1CCOCC1 | i | 0.46
CCn1c(C2CCN(S(=O)(=O)c3ccc(Cl)s3)C2)nc2cccnc21 (stereo unspecified) | i | 1.74
CN(CCc1noc(COc2ccccc2F)n1)C(=O)CC1CCCC1 | i | 0.17
Cc1noc(C)c1S(=O)(=O)N1CCc2c(c(COCc3ccc(F)cc3Cl)nn2C)C1 | i | -0.46
CCCOc1ccc(-c2nn3c(=O)c(NC(=O)c4ccc(F)cc4)cnc3o2)cc1 | i | 1.01
CC(C)c1cc(C2CCCN2Cc2ccc(O)cc2)no1 (stereo unspecified) | i | -0.83
COC(=O)CC1=CC(SCC(=O)Nc2ccc3c(c2)OCCO3)=Nc2ccccc2N1 | i | 0.38
Cc1cc(C)cc(Nc2nc3ccc(C)cc3n3nnnc23)c1 | i | 0.72
Cc1ccc(-c2csc3c(=O)[nH]cnc23)cc1 | i | 0.02
O=C(NCc1ccc(F)cc1F)c1sc2ncccc2c1-n1cccc1 | i | -0.55
Cc1[nH]c2ccc(-c3nnc(SCC(=O)NCc4nc5ccccc5[nH]4)o3)cc2c1C | i | -0.31
CN(C)CCCNCc1cccc(Oc2nnnn2-c2ccccc2)c1 | i | -0.78
CCCCCc1c(C)nn(-c2nc(CC(=O)Nc3nccs3)cs2)c1C | i | -0.09
CCN(Cc1ccccc1)S(=O)(=O)c1cc(-c2ccc(=O)n(-c3c(C)noc3C)n2)ccc1OC | i | 0.54
CC(=O)N1c2ccc(S(=O)(=O)N3CCCC3C(=O)Nc3cc(C)ccn3)cc2CC1C (stereo unspecified) | i | -0.14
c1ccc(CC2CCN(Cc3nnc(-c4ccc5c(c4)OCO5)o3)CC2)cc1 | i | 1.31
COc1ccc(NC(=O)Cc2c(C)nn(-c3nc(-c4ccccc4)cs3)c2C)c(OC)c1 | i | -0.82
O=c1cc(CN2CCCC2)nc2nc(NCc3ccc(Cl)cc3)[nH]n12 | i | 0.27
Cc1cc(Cl)ccc1NC(=O)c1[nH]c(C)c(S(=O)(=O)N2CCCC2)c1C | i | 0.99
COc1ccc(Br)cc1C1C(C(=O)OC(C)(C)C)=C(C)Nc2nnnn21 (stereo unspecified) | i | 0
O=C(CN1C(=O)CN(C(=O)NCc2ccccc2)c2ccccc21)N1CCCCC1 | i | 1.88
COc1ccc(Cl)cc1C1Nc2ccc(C)cc2[C@H]2OCC[C@@H]12 (stereo partly specified) | i | 0.42
